Source: PubChem BioAssay (several laboratories)
ERa coact inh = ERα–SRC-1 coactivator interaction inhibitors, primary screen, biochemical, TR-FRET, ERα LBD, estradiol-bound. hit rate 1.7% among 86,000. TR-FRET ER-alpha LBD / SRC-1 peptide. Estrogen receptor (Homo sapiens), P03372. inhibition, % at 25.6 µM; in the data active = inhibition above about 50%;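 also: 0% = receptor plus peptide control and 100% = peptide only without receptor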
Smad3 inh = Smad3/FoxH1 peptide binding inhibitors, primary screen, biochemical, TR-FRET; TR-FRET Smad3/Dy647-FoxH1 peptide binding, europium anti-His; inhibition, % at 25 µM; hit rate 0.29% among 88,000; AID 630, 2007;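 active = compounds that reduce the energy-transfer binding signal between the protein and its labelled peptide by more than half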;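 also: 0% = Smad3 plus labelled peptide maximal FRET and 100% = peptide-only background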
Target sequence (P84022 whole entry, looked up): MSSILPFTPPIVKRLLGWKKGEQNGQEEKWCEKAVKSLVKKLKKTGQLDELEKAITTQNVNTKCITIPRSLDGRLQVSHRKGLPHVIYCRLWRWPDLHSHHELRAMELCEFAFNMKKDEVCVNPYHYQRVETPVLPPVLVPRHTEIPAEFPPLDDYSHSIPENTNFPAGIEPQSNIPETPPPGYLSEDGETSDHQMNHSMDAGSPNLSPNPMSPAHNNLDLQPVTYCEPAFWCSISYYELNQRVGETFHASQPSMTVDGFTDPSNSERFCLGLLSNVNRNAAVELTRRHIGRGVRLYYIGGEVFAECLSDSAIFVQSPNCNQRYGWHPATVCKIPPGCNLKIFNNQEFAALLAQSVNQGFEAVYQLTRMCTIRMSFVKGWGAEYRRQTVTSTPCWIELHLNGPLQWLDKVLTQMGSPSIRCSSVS
ERb SRC1 inh = inhibitors of ERβ-SRC1 coactivator interaction, primary screen, biochemical, TR-FRET, ERβ LBD, SRC-1 peptide. Estrogen receptor beta (Homo sapiens), Q92731. TR-FRET ER-beta LBD / SRC1-Cy5 peptide binding; receptor agonist-loaded with 1 µM estradiol. hit rate 1.3% among 86,000. inhibition, % at 25.6 µM;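 active = compounds whose percent inhibition of the receptor-coactivator binding signal exceeds about 50% in the single-dose screen, limit read from the data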;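 also: 0% = receptor plus peptide wells without compound and 100% = peptide-only wells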
Target sequence (Q92731 whole entry, looked up, the tested form may be a part): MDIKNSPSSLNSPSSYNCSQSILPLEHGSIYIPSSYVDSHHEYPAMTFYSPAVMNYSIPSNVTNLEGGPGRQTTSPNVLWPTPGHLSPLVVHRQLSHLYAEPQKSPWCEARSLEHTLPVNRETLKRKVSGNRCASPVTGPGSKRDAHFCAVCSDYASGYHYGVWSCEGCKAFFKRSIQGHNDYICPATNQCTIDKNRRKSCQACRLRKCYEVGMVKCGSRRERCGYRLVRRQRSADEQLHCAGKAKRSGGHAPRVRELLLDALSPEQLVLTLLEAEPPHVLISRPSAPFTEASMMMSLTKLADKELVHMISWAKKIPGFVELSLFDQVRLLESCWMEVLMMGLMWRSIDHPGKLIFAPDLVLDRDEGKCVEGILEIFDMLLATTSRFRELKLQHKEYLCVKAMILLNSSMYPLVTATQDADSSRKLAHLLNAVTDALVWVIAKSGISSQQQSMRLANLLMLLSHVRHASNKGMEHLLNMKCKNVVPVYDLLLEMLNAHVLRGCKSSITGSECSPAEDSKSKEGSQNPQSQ
ERa coact pot = enhancers of ERα–SRC-1 coactivator binding, primary screen, biochemical, TR-FRET, ERα LBD, low estradiol; Estrogen receptor (Homo sapiens), P03372; TR-FRET ERalpha-LBD/SRC-Cy5 coactivator binding, 2 h; 100 = basal binding, no effect; coactivator binding (% of control), % at 25.6 µM; hit rate 1.3% among 86,000; AID 639, 2007; in the data active = activity above about 200%;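 also: binding measured in presence of low estradiol as agonist stimulus; 0% = peptide alone without receptor and 100% = receptor with peptide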
Fibroblast inh = antiproliferative effect on LL 47 fibroblasts – human, LL 47 cells, CellTiter-Glo luminescence, primary screen | LL 47 human lung fibroblast viability, ATP luminescence; stronger effect = lower value | viability, % at 10 µM | hit rate 1.1% among 85,000 | AID 719, 2007;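 active = viability at or below 50% in the single dose screen; inactive = viability above 50%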;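 also: compound exposure lasted 72 h before the ATP readout; 100% = median luminescence of untreated cell-only wells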
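Material: human lung fibroblast line LL 47, low passage; Evaluation: viability percentage against median untreated-cell control; Buffer or medium: 15% FBS in IMEM; Incubation: 72 h compound exposure at 37 °C after overnight plating; Dosing: 0.1% DMSO in all compound wells; Measured by: CellTiter-Glo luminescence.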
Calb biofilm kill = clotrimazole potentiators killing Candida biofilms, primary screen, with clotrimazole, Alamar Blue; C. albicans biofilm + clotrimazole; inhibition, % at 6 µM; hit rate 0.14% among 85,000;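 active = inhibition above 20%; inactive = inhibition below 20%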;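 also: preformed 24 hr biofilms exposed to compound for 48 hr; 0% = biofilm without compound and 100% = blank killed by clotrimazole plus chlorhexidine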
HUVEC inhibit = inhibitors of HUVEC proliferation, primary screen, cell-based, 384-well; CellTiter-Glo luminescence, 72 h; stronger effect = lower value; viability, % at 10 µM (by protocol); hit rate 1.1% among 86,000; AID 648, 2007;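 active = viability at or below 30%; inactive = viability above 30%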;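 also: 100% = median luminescence of DMSO-only cell control wells on each plate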
H69AR growth 86K = proliferation blockers of H69AR lung cancer cells, primary screen, cell-based, human, 86K library | H69AR lung tumor viability, ATP luminescence, 72 h; stronger effect = lower value | viability, % at 10 µM | hit rate 6% among 85,000;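 active = viability at or below 40%; inactive = viability above 40%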;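 also: multidrug resistant small cell line overexpressing MRP-1 efflux transporter; 100% = mean luminescence of untreated control wells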
* = called active by the depositor; · = not tested or not shown; [ ] = dose if it differs, or a comment.

entry	smiles	ERa coact inh	Smad3 inh	ERb SRC1 inh	ERa coact pot
1	Cc1ccccc1-c1nc(-c2ccc(NC(=O)c3ccc(Br)o3)cc2)no1	45	-9	39	265*
2	Cc1cc(C)cc(N(CC(=O)N2CCN(Cc3ccccc3)CC2)S(=O)(=O)c2c(C)noc2C)c1	-7	1	-4	95
3	COc1nc(OC)nc(N2CCC(C(=O)NCc3cccs3)CC2)n1	-7[fluorescence artefact?]	3	-3	110
4	CCCCNC(=O)CCC(=O)Nc1ncc(-c2ccc(C)cc2)n1C	-7	5	11	118
5	CCn1c(COc2ccc(Cl)cc2)nnc1SCC(=O)Nc1ccc2c(c1)OCO2	-5	0	2[fluorescence artefact?]	99
6	CCOCCCNC(=O)NC12CC3CC(CC(C3)C1)C2	4	-3	4[fluorescence artefact?]	121
7	COCCn1nnnc1C(c1cc2cc(C)ccc2[nH]c1=O)N1CCc2ccccc21 (configuration not stated)	-1	1	8	71[fluorescence artefact?]
8	O=C(Cn1nc(-c2ccccc2)nc1-c1ccccc1)OC1CCCCC1	-6	7[fluorescence artefact?]	-6	102
9	Cc1ccc(C(=O)NCCCn2ccnc2)o1	3	8	-5	105
10	CN(C)CCSc1nc(-c2ccccc2)nc2c1COC(C)(C)C2	-2	-13	-8	101
11	CC1(C)Cc2ccccc2C(/C(=N/O)C(N)=O)=N1	-2	3	-4	107
12	O=C(CCSc1ccccc1)Nc1ccc(S(=O)(=O)N2CCOCC2)cc1	-3	-1	-2	113

entry	Fibroblast inh	Calb biofilm kill	HUVEC inhibit	H69AR growth 86K
1	108	2	110	83
2	91	-4	88	78
3	103	2	110	86
4	102	3	104	90
5	98	6	76	93
6	105	-1	107	98
7	94	-2	102	93
8	90	3	111	90
9	101	12	109	95
10	96	6	63	62
11	101	6	102	111
12	102	1	93	100

Continued:
entry	smiles	ERa coact inh	Smad3 inh	ERb SRC1 inh	ERa coact pot
13	O=C(Nc1ccncc1)c1ccccc1F	-1	-3	-7	98
14	CCc1ccc(NCc2cc3c(C)nn(-c4ccccc4)c3[nH]c2=O)cc1	4	-9	3[fluorescence artefact?]	105
15	CCOc1ccccc1NC(=O)COn1nnc2ccc(Cl)cc21	1	-11	-8	96
16	COc1ccccc1NC(=O)c1ccc(S(=O)(=O)N2CCCC2)cc1	-7	1	-5	100
17	Cc1ccccc1CS(=O)(=O)Cc1ccc(C(=O)NCCCN2CCOCC2)o1	-7	-10	-2	100
18	O=C(CCn1nnc2ccccc2c1=O)NCC1CCC(C(=O)O)CC1 (configuration not stated)	3	-1	-5	114
19	Cc1ccc(OCC(=O)N2CCN(C(=O)c3cccs3)CC2)cc1	-7	-7	-16	100
20	Cc1ccc2[nH]c(C(=O)O)c(NC(=O)CN3CCN(c4cccc(C)c4C)CC3)c2c1	-12	7[fluorescence artefact?]	-13	113[fluorescence artefact?]
21	CN1CCN(S(=O)(=O)c2ccc(NC(=O)c3cccc(S(=O)(=O)N4CCCC4)c3)cc2)CC1	1	-2	13	102
22	Cc1ccc(C(=O)NCCCN2CCOCC2)cc1N1CCCC1=O	1[fluorescence artefact?]	-16	1	98
23	Cc1cc(NS(=O)(=O)c2ccc(NC(=O)C(c3ccccc3)c3ccccc3)cc2)no1	-6	7	-18	94
24	O=C1c2ccccc2-c2ncnc3cccc1c23	9	0	-11	103[fluorescence artefact?]

entry	Fibroblast inh	Calb biofilm kill	HUVEC inhibit	H69AR growth 86K
13	93	10	79	101
14	84	2	63	98
15	94	1	91	47
16	95	7	108	87
17	86	0	94	93
18	111	6	94	92
19	101	1	114	89
20	99	-1	94	88
21	·	6	96	82
22	109	2	95	107
23	108	3	88	99
24	109	5	54	62

(next part)
entry	smiles	ERa coact inh	Smad3 inh	ERb SRC1 inh	ERa coact pot
25	c1ccc(C(c2ccccc2)N2CCN(Cc3nnnn3C3CCCC3)CC2)cc1	-2	-5	3	94
26	CC(=O)NC(Cc1ccc(F)cc1)C(=O)NC1CCN(c2nnnn2-c2ccccc2)CC1 (configuration not stated)	-2	-1	-7	124
27	N#Cc1cnc(SCC(=O)c2ccccc2)nc1N	22	-12	7	120[fluorescence artefact?]
28	CCc1ccc(N2C(=O)C3ON(c4ccccc4)C(c4ccco4)C3C2=O)cc1 (configuration not stated)	9	15	15[fluorescence artefact?]	115
29	CC1(C)CC(=O)C(C=NCC2CCN(C(=O)Nc3ccc(Cl)c(Cl)c3)CC2)=C(O)C1	-3	-8	-6	109
30	CC(C)c1ccc(NC(=O)NC2CCCCC2)cc1	-8	6[fluorescence artefact?]	-3	98
31	COc1ccc(OCC(=O)Nc2cccc(NC(=O)COc3ccc(OC)cc3)n2)cc1	4	0	9	121
32	O=C(/C=C/NNC(=O)c1cccc(Br)c1)c1ccccc1	-4	6	-5	92
33	Clc1ccc(-c2noc(CN3CCN(c4ccccc4)CC3)n2)cc1	-3	11[fluorescence artefact?]	-1	109
34	CC1CCCCC1NC(=O)COn1nnc2ccc(Cl)cc21 (configuration not stated)	-3	10	-12	104
35	COc1cccc(-c2nc(-c3ccc(NC(=O)c4ccncc4)cc3)no2)c1	15	12	12	131
36	Cc1nnc(NC(=O)c2ccco2)s1	-3	0	-8	89

entry	Fibroblast inh	Calb biofilm kill	HUVEC inhibit	H69AR growth 86K
25	88	15	100	87
26	100	3	105	96
27	100	4	88	91
28	110	4	79	73
29	97	6	80	85
30	88	3	84	26*
31	74	4	63	66
32	81	9	87	62
33	101	8	110	96
34	100	0	105	104
35	104	-1	99	92
36	94	0	97	97

Next records.
entry	smiles	ERa coact inh	Smad3 inh	ERb SRC1 inh	ERa coact pot
37	CCN(CC)S(=O)(=O)c1ccc(-c2nnc(SCC(=O)Nc3ccc4c(c3)OCO4)o2)cc1	50[fluorescence artefact?]	1	17	101
38	CC(Sc1nncs1)C(=O)NCc1ccc2c(c1)OCO2 (configuration not stated)	2	-15[fluorescence artefact?]	4	109
39	Cc1cccc(NC(=O)CN2C(=O)CNC2=O)c1	-1	7	-9	103
40	COc1cc(C)ccc1NC(=O)c1ccc(S(=O)(=O)N2CCOCC2)cc1	3	-16	9[fluorescence artefact?]	110
41	COCCN(CCOC)S(=O)(=O)c1ccc(C(=O)Nc2nc(-c3ccncc3)cs2)cc1	9[fluorescence artefact?]	2	3[fluorescence artefact?]	211*
42	CS(=O)(=O)N(CC(N)=O)c1cccc(Br)c1	-26	0	-28[fluorescence artefact?]	100
43	FC(F)(F)c1cc(-c2ccc(Cl)cc2)nc(NCc2cccnc2)n1	-2	10	-8	94
44	CCOC(=O)c1cc2ccc3ccccc3c2s1	7	1	-7	122
45	CCCCn1nnnc1NCc1ccc(OC)c(OC)c1	-3	-1	1	108
46	COc1ccc(-c2nnc(SCCC(=O)O)n2C)cc1OC	-31	0	-13	109
47	O=S(=O)(NC1CCCCC1NCc1ccco1)c1ccccc1 (configuration not stated)	3	1	5[fluorescence artefact?]	123
48	Cc1sc2c(c1C)c(=O)nc1n2Cc2ccccc2-1	-7	2	1	118

entry	Fibroblast inh	Calb biofilm kill	HUVEC inhibit	H69AR growth 86K
37	96	5	64	32*
38	108	-1	107	101
39	104	4	101	92
40	106	-3	100	81
41	79	3	78	84
42	100	7	88	102
43	84	4	84	51
44	99	-2	100	76
45	98	3	104	101
46	91	4	104	91
47	81	6	84	91
48	106	6	103	90

Following part:
entry	smiles	ERa coact inh	Smad3 inh	ERb SRC1 inh	ERa coact pot
49	O=C(Nc1ccc2c(c1)OCCO2)c1ccc(S(=O)(=O)N2CCCCC2)cc1	-3	3	-4	81
50	COc1ccccc1NC(=O)C1=C(C)Nc2nnnn2C1c1cccc(C)c1 (configuration not stated)	-7	-19	-10	138
51	COCC(C)NC(=O)CCSc1nc(-c2ccc(OC)cc2)cc(C(F)(F)F)n1 (configuration not stated)	-4	-8	-8	102
52	O=C(NCc1ccc2c(c1)OCO2)C1CCC(CNS(=O)(=O)c2ccccc2)CC1 (configuration not stated)	-4	-6	3	133

entry	Fibroblast inh	Calb biofilm kill	HUVEC inhibit	H69AR growth 86K
49	102	1	75	83
50	85	0	74	30*
51	105	7	105	85
52	92	10	91	90

By substructure, those above containing a furan ring, fused or not
entry	smiles	ERa coact inh	Smad3 inh	ERb SRC1 inh	ERa coact pot
1	Cc1ccccc1-c1nc(-c2ccc(NC(=O)c3ccc(Br)o3)cc2)no1	45	-9	39	265*
9	Cc1ccc(C(=O)NCCCn2ccnc2)o1	3	8	-5	105
17	Cc1ccccc1CS(=O)(=O)Cc1ccc(C(=O)NCCCN2CCOCC2)o1	-7	-10	-2	100
28	CCc1ccc(N2C(=O)C3ON(c4ccccc4)C(c4ccco4)C3C2=O)cc1 (configuration not stated)	9	15	15[fluorescence artefact?]	115
36	Cc1nnc(NC(=O)c2ccco2)s1	-3	0	-8	89
47	O=S(=O)(NC1CCCCC1NCc1ccco1)c1ccccc1 (configuration not stated)	3	1	5[fluorescence artefact?]	123

entry	Fibroblast inh	Calb biofilm kill	HUVEC inhibit	H69AR growth 86K
1	108	2	110	83
9	101	12	109	95
17	86	0	94	93
28	110	4	79	73
36	94	0	97	97
47	81	6	84	91

This is a subset; rates above refer to the full screens.
